KCNQ2 inh = KCNQ2 potassium channel inhibitors, primary screen, cell-based, CHO-K1, FluxOR thallium flux, B-score (AID 2156) | Potassium voltage-gated channel subfamily KQT member 2 (Rattus norvegicus), O88943 | B-score at 10 µM | 20 min; hits give low values; only compounds with negative scores are shown here; some inactives read as strong as hits | 1.1% of 310,000 active;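 active means fluorescence ratio B-score at most minus 3 library SDs, with starting brightness B-score within 2 library SDs, cut at about -5.5 in these data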
Target sequence (O88943 whole entry, looked up): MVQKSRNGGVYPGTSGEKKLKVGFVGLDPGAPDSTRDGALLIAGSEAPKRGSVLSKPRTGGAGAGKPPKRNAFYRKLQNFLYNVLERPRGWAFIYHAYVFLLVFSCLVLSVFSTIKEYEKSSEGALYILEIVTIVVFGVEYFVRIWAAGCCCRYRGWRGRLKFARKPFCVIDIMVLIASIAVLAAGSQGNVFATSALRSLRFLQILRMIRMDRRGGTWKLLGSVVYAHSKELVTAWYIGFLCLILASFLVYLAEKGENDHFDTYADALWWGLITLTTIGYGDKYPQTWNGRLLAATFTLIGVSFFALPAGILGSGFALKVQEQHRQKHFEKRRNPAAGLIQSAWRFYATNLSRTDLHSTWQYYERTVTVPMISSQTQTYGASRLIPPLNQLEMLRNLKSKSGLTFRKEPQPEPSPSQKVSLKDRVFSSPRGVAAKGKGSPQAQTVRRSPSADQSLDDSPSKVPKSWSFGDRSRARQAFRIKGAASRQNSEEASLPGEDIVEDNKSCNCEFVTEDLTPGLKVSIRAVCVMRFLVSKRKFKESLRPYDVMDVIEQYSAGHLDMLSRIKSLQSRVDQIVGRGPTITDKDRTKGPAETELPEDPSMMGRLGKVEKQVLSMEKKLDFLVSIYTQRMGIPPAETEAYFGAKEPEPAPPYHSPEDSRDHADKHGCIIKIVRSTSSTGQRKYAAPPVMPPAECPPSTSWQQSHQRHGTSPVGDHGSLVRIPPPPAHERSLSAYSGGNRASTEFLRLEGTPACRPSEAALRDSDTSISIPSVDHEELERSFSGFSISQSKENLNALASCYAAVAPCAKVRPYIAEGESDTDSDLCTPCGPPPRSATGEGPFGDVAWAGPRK
KCNQ2 inh baseline = recorded beside KCNQ2 inh, whose call it bears; B-score; measured here: initial fluorescence intensity artifact check;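 brightness before thallium and not channel activity; 0 = typical well and far values either way flag optical interference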
Numbers without * were called inactive; i = inactive. Some of the compounds tested, so the mix of outcomes need not match the whole.

SMILES | KCNQ2 inh | KCNQ2 inh baseline
CCn1c(SCC(=O)Nc2ccc(NC(=O)c3cccs3)cc2)nnc1-c1cccnc1 | i | 1.4
Cc1cccc2cc(CN(Cc3cccnc3)C(=O)c3ccccc3F)c(Cl)nc12 | i | -1.4
O=c1cnnc(N/N=C/c2ccc3c(c2)OCO3)[nH]1 | i | 0.56
CCN(CC)C(=O)C(Sc1nnnn1-c1ccc(O)cc1)c1ccccc1 (stereo not given) | -6.1* | 1.6*
COc1ccc(CCNC(=O)CCOc2cc(C)ccc2C)cc1OC | i | 0.56
CCOc1ccc(NS(=O)(=O)c2ccc(NC(=O)C3CCCO3)cc2)cc1 (stereo not given) | i | -0.31
Cc1cc(SCc2ccc(Br)cc2)nc(=O)[nH]1 | i | 0.23
Cc1nc(Nc2ccccc2)sc1C | i | 0.06
O=C(O)Cn1nc(-c2ccc(F)cc2)oc1=O | i | 0.93
Cc1ccc(O)c(/C=N/NC(=O)COc2ccc3c(C)cc(=O)oc3c2)c1 | i | -0.56
CC1(C)CC2CC(C)(CN2C(=O)COC(=O)c2cc(Cl)cc(Cl)c2N)C1 (stereo not given) | i | -0.12
CCN(CC)S(=O)(=O)c1ccc(C(=O)NNC(=O)C2CCN(S(=O)(=O)c3ccc(Cl)cc3)CC2)cc1 | i | -1.4
CC(=O)O[C@]1(C(C)=O)CCC2C3C=C(C)C4=CC(=O)CC[C@]4(C)C3CC[C@@]21C (stereo not given in full) | i | 1.3
O=C(CSc1nnc(-c2ccco2)n1Cc1ccccc1)c1ccc(F)cc1 | i | 0.01
O=C(Nc1cccc2ncccc12)C(c1ccccc1)c1ccccc1 | i | -0.3
O=C(N/N=C/c1ccc(Cl)cc1Cl)c1n[nH]c2c1CCCC2 | i | 2
CCN1CCN(C(=O)N(Cc2ccc(Cl)cc2)S(=O)(=O)c2ccc(C)cc2)CC1 | i | 0.72
NS(=O)(=O)c1ccc(CCNC(=O)CCCn2c(=O)[nH]c3ccc(Br)cc3c2=O)cc1 | i | -2.2
CN(C)c1ccc(-c2nnc(-c3ccccc3F)o2)cc1 | i | -0.15
COCCCNC(=O)Cn1nc(-c2ccc(C)cc2)ccc1=O | i | -1.3
CC1CCCN(c2ncnc3c2cnn3-c2ccc(Cl)cc2)C1 (stereo not given) | i | -0.13
Cc1ccc(-c2nnc(SCC(=O)NNC(=O)COc3cccc(C)c3)n2C)cc1 | i | 0.61
Cc1cccc(Nc2nc3ccccc3s2)c1C | i | 0.19
Cc1ccccc1NS(=O)(=O)c1ccc(C(=O)N2CCC2)cc1 | i | -0.39
CCOc1cnc(-c2c(-c3ccccc3Cl)noc2C)o1 | i | -0.59
CC1(C)NC(=O)N(CC(=O)OCC(=O)Nc2sccc2C#N)C1=O | i | 1.1
O=C1CC(c2ccccc2)=Nc2ccccc2N1Cc1ccccc1 | -6.2* | 0.03*
CC(C)(O)C#Cc1ccc(CN2CCN(Cc3ccccc3)C(CCO)C2)cc1 (stereo not given) | i | 0.15
CN(C)c1ccc(CN(C(=O)/C=C/c2ccccc2Cl)C2CCS(=O)(=O)C2)cc1 (stereo not given) | i | -0.82
C#CCOCCOCCOCCNc1nc(N2CCN(C(=O)[C@H](Cc3ccc(O)cc3)n3cc([C@@H](N)C(C)CC)nn3)CC2)nc(N2CCN(C(=O)[C@H](Cc3cc4ccccc4[nH]3)n3cc([C@@H](N)C(C)CC)nn3)CC2)n1 (stereo not given in full) | i | -1.9
O=C(NCCc1ccc(Cl)cc1)c1ccc(CNc2c(N3CCOCC3)c(=O)c2=O)cc1 | i | -0.18
Cc1cc(S(=O)(=O)N2CCN(c3ccccn3)CC2)c(C)cc1Cl | i | 1.2
Cc1cc(C)cc(C(=O)NCC(=O)N2CCN(c3cccc(Cl)c3)CC2)c1 | i | 0.65
Cn1nnnc1SCC(=O)N1CCc2ccccc21 | i | 0.92
COCC(=O)N(Cc1cc2cc(C)ccc2[nH]c1=O)c1ccc(C)c(C)c1 | i | -1.1
Cc1cc(-c2ccccc2)n(-c2ccc(C(=O)NC(C)C)cc2)n1 | i | -0.02
CCN(CC)CCN(C(=O)c1ccc2c(c1)CCCC2)c1nc2ccc(F)cc2s1 | i | -0.35
COc1cccc(N2CCN(S(=O)(=O)c3ccc4nc(-c5ccccc5)[nH]c4c3)CC2)c1 | i | 1
Oc1cc2ccccc2cc1-c1n[nH]c(=S)n1Cc1ccco1 | i | -1.9
S=C(NC1CCCCC1)N1CCc2[nH]c3ccccc3c2C1 | i | 2
CCOC(=O)c1[nH]c2ccccc2c1NC(=O)c1ccc(S(=O)(=O)N2CCCCC2)cc1 | i | -0.08
COc1ccc(C)cc1N(CC(=O)N1CCOCC1)S(C)(=O)=O | i | -0.26
CCOc1ccccc1NC(=O)CSc1nc2cc(O)ccc2c(=O)n1-c1ccc(OC)c(OC)c1 | i | 0.3
O=C(NCC1CCCO1)c1nn2c(C(F)(F)F)cc(-c3ccc(Br)o3)nc2c1Br (stereo not given) | i | -0.56
COc1ccc(C(C)=O)cc1COC(=O)c1cccc(N(C)C)c1 | i | -0.67
CCOC(=O)c1c(C)[nH]c(C)c1C(=O)CSc1nnc(-c2ccncc2)n1C | i | 1.2
Cc1csc(Sc2ccc(S(=O)(=O)N3CCCC3)cn2)n1 | i | -0.09
CC(=O)c1c(OC(=O)c2cccc(Cl)c2)c2ccccc2n1C | i | 1.3
OC(CCCCN1CCCCC1)c1ccccc1 (stereo not given) | i | -0.62
O=C(c1ccc(S(=O)(=O)N2CCOCC2)cc1)N1CCOCC1 | i | 3
Cc1ccc(C(=O)NNC(=O)C2CCCN(c3ncccn3)C2)cc1 (stereo not given) | i | -0.14
O=c1cc(-c2ccc([N+](=O)[O-])cc2)c2ccc(O)cc2o1 | i | 0.03
CCOc1cc(S(=O)(=O)N(Cc2ccccc2)Cc2ccccc2)c(OCC)cc1-n1cnnn1 | i | 0.22
COC(=O)CC1Oc2ccc(C)cc2NC1=O (stereo not given) | i | -0.13
CCc1nc2ccccc2c(=O)n1/N=C/c1ccc(Cl)cc1 | i | 0.69
CN(C)C(CN1C(=O)C2CC=CCC2C1=O)c1cn(C)c2ccccc12 (stereo not given) | i | -0.05
CC(C)(C)c1ccc(C(=O)n2cnc3ccccc32)cc1 | i | 1.3
COc1cccc2cc(C(=O)N3CCCc4ccccc43)oc12 | i | 0.6
COc1cc(OC)c(N(C)S(=O)(=O)c2cccc(C(=O)OCc3c(C)noc3C)c2)cc1Cl | i | -0.28
CN1CCCC(OC(=O)CCCCC(=O)OC2CCCN(C)C2)C1 (stereo not given) | i | -0.05
(next part)
SMILES | KCNQ2 inh | KCNQ2 inh baseline
COc1cc(OC)cc(C(=O)N2CCC(N3CCN(c4ccccc4)CC3)CC2)c1 | i | 1.9
CNC(=O)CSc1nnnn1-c1ccc2c(c1)OCCO2 | i | 1.2
O=C(NCc1ccc(Cl)cc1)C(=O)NCC1OCCN1S(=O)(=O)c1cccs1 (stereo not given) | i | -0.32
Cc1noc(C)c1C(=O)OCC(=O)c1c[nH]c2ccccc12 | i | 1.3
C/C(=N\NC(=O)Cn1cnc2ccccc21)c1cccs1 | i | -1.5
COc1ccc2c(c1)sc(=NC(=O)CS(=O)(=O)c1ccc(F)cc1)n2C | i | -1.1
CCOc1cc(/C=C2\SC(=NC)N(C)C2=O)c(Br)cc1OC(C)=O | i | -0.63
Cc1cc(C)cc(N(C(=O)c2csnn2)C(C(=O)NC2CCCCC2)c2ccccn2)c1 (stereo not given) | i | -1.1
CCN(CC)C(=O)CSc1nc2c(sc(=S)n2CC)c(=O)n1-c1ccccc1 | i | 1.1
Cc1ccc(C(C(=O)NC2CCCC2)N(C(=O)Cc2cccs2)c2cccc(C)c2C)o1 (stereo not given) | i | 0.67
Cc1nc(CNS(=O)(=O)c2ccc3ccccc3c2)cs1 | i | -0.04
COc1cc(N2CCOCC2)ccc1C=C(C#N)C#N | i | -0.21
Cc1ccc(SCCC(=O)OC(C(=O)NC(N)=O)C(C)C)cc1 (stereo not given) | i | 2.1
O=C(CNS(=O)(=O)c1ccc(Cl)cc1)OCC(=O)N1CCCc2ccccc21 | i | 0.09
CSc1nnc(SCc2nc3sc(C(=O)O)c(C)c3c(=O)[nH]2)s1 | i | 4.7
CC1Cc2ccccc2N1C(=O)CN1C(=O)NC(C)(c2ccc3c(c2)OCCO3)C1=O (stereo not given) | i | 0.57
COc1ccc(-c2noc(N3CCC(C(=O)Nc4ccccc4F)CC3)n2)cc1 | i | -1
Cc1ccc(Cl)cc1N1CCN(C(=O)C(C)n2ncn3cccc3c2=O)CC1 (stereo not given) | -5.8* | -2.1*
Cc1ccc(-c2ocnc2C(=O)N2CCOCC2)cc1 | i | 1.2
Cc1ccc(NC(=O)CNC(=O)c2ccco2)nc1 | i | -0.75
COc1ccc(NC(=O)CSc2nnc3ccc(-c4ccccn4)nn23)cc1OC | i | 0.07
Cn1ccnc1C(O)c1cccc(OCc2ccccc2)c1 (stereo not given) | i | 2.4
O=C(CCC(=O)OCC(F)(F)C(F)F)Nc1ccc(Cl)cc1 | i | -0.72
Cc1cccc(C2(c3cccc(C)c3)CC2C(=O)NCC2CCCO2)c1 (stereo not given) | i | 1.6
Cc1ccc(C(=O)CSc2nnc(CNc3ccc(C)cc3C)n2Cc2ccco2)cc1 | i | -1.3
COC(=O)C(Nc1nccs1)(OC)C(F)(F)F (stereo not given) | i | 2
COCCNC(=O)C(=O)N/N=C/c1ccc(C(=O)OC)cc1 | i | 0.01
C/C(CC(=O)Nc1ccccc1-c1ccccc1)=N\NC(=O)COc1ccc(C)cc1Br | i | -0.47
O=C(COC(=O)CCC(=O)c1ccc(F)cc1)Nc1ccccc1 | i | 1.7
Cc1cc(C)nc(N/C(=N\S(=O)(=O)Cc2ccccc2)Nc2cccc(Cl)c2C)n1 | i | -0.28
CCn1c(SCC(=O)NC2CCCC2)nnc1-c1ccco1 | i | -0.11
Cc1ccc2nc(NC(=O)CN3C(=O)C4CC=CCC4C3=O)sc2c1 (stereo not given) | i | 0.19
COc1cccc(NC(=S)N(Cc2ccc(C(=O)O)cc2)Cc2ccc(OC)c(OC)c2)c1 | i | -0.37
COc1ccc(CNc2nc3ccccc3n2C)c(OC)c1 | i | -0.32
COc1ccc(NC(=S)Nc2cc(S(=O)(=O)N3CCCCC3)ccc2OC)cc1 | i | -1
O=C(COC(=O)C1Cc2ccccc2CN1C(=O)c1ccccc1Cl)Nc1ccc(N2CCOCC2)cc1 (stereo not given) | i | -0.07
COc1ccc(NC(=S)N2CCCCC2c2cccnc2)cc1 (stereo not given) | i | 0.08
CCC1(c2ccccc2)C(=O)N(C(=O)OC(C)(C)C)N1C(=O)OC(C)(C)C (stereo not given) | -6.5* | 0.94*
CCn1c(SCc2ccccc2)nnc1-c1cccnc1 | i | 1.3
Cc1cc(C)cc(OCc2nnc(SCC(=O)c3ccc(Br)cc3)o2)c1 | i | 1.1

Another view of part of the listing above.
| canonical_smiles | KCNQ2 inh | KCNQ2 inh baseline |
| --- | --- | --- |
| Cc1ccc(C(=O)CSc2nnc(CNc3ccc(C)cc3C)n2Cc2ccco2)cc1 | i | -1.3 |
| COC(=O)C(Nc1nccs1)(OC)C(F)(F)F (stereo not given) | i | 2 |
| COCCNC(=O)C(=O)N/N=C/c1ccc(C(=O)OC)cc1 | i | 0.01 |
| C/C(CC(=O)Nc1ccccc1-c1ccccc1)=N\NC(=O)COc1ccc(C)cc1Br | i | -0.47 |
| O=C(COC(=O)CCC(=O)c1ccc(F)cc1)Nc1ccccc1 | i | 1.7 |
| Cc1cc(C)nc(N/C(=N\S(=O)(=O)Cc2ccccc2)Nc2cccc(Cl)c2C)n1 | i | -0.28 |
| CCn1c(SCC(=O)NC2CCCC2)nnc1-c1ccco1 | i | -0.11 |
| Cc1ccc2nc(NC(=O)CN3C(=O)C4CC=CCC4C3=O)sc2c1 (stereo not given) | i | 0.19 |
| COc1cccc(NC(=S)N(Cc2ccc(C(=O)O)cc2)Cc2ccc(OC)c(OC)c2)c1 | i | -0.37 |
| COc1ccc(CNc2nc3ccccc3n2C)c(OC)c1 | i | -0.32 |
| COc1ccc(NC(=S)Nc2cc(S(=O)(=O)N3CCCCC3)ccc2OC)cc1 | i | -1 |
| O=C(COC(=O)C1Cc2ccccc2CN1C(=O)c1ccccc1Cl)Nc1ccc(N2CCOCC2)cc1 (stereo not given) | i | -0.07 |
| COc1ccc(NC(=S)N2CCCCC2c2cccnc2)cc1 (stereo not given) | i | 0.08 |
| CCC1(c2ccccc2)C(=O)N(C(=O)OC(C)(C)C)N1C(=O)OC(C)(C)C (stereo not given) | -6.5* | 0.94* |
| CCn1c(SCc2ccccc2)nnc1-c1cccnc1 | i | 1.3 |
| Cc1cc(C)cc(OCc2nnc(SCC(=O)c3ccc(Br)cc3)o2)c1 | i | 1.1 |

Additional results
SMILES | KCNQ2 inh | KCNQ2 inh baseline
O=c1[nH]c(-c2ccccc2)ncc1Oc1ccccc1 | i | -0.38
CC1CCN(C(=O)CCc2nnc3ccc(N4CCC5(CC4)OCCO5)nn23)CC1 | i | -0.75
CC(NC(=S)Nc1ccccc1Cl)C(c1ccccc1)N1CCOCC1 (stereo not given) | i | -0.01
O=C(Nc1ccncc1)Nc1ccc(Br)cc1Cl | i | 0.4
C=CCn1cccc(C(=O)Nc2cc(OC)c(OC)c(OC)c2)c1=O | i | 0.68
Cc1ncc(CN2CCCC(C(=O)Nc3ccc(-c4cccc(F)c4)cc3)C2)s1 (stereo not given) | i | -2.7
COc1cc(OC)cc(-c2nnc(SCC(=O)N3CCCc4ccccc43)o2)c1 | i | 0.82
COc1ccc(Cl)cc1NC(=O)C(C)OC(=O)c1ccc(NS(=O)(=O)c2ccc3[nH]c(=O)[nH]c3c2)cc1 (stereo not given) | i | -0.58
CCCc1ccc(-c2cc(C(=O)NCCc3ccc(S(N)(=O)=O)cc3)c3ccccc3n2)cc1 | i | -0.63
N/C(=N\OC(=O)Nc1ccccc1)c1ncc([N+](=O)[O-])s1 | i | 1.5
Cc1ccc(-c2nnc(SCC(=O)N/N=C/c3c(C)nn(-c4ccccc4)c3C)n2-c2ccc(C)cc2)cc1 | i | -1.1
CCC(C)NC(=O)c1ccc(CSCc2cccc(F)c2)o1 (stereo not given) | i | 2.6
